VDR inh: blocks the human vitamin D receptor. 400,000 compounds, 0.93% hits. VDR-SRC2-3 peptide fluorescence polarization, 2 h. Potency, µM, for inactives: max response, negative = inhibition, most hits filed as inhibitors. P11473; active = well fitted inhibition curve with a large enough effect; inconclusive = small, poorly fitted or top-dose-only effect, or another doubt; inactive = no such curve, though single readings can be large or run the other way; also: series mostly up to about 120 µM
Target sequence (P11473 whole entry, looked up): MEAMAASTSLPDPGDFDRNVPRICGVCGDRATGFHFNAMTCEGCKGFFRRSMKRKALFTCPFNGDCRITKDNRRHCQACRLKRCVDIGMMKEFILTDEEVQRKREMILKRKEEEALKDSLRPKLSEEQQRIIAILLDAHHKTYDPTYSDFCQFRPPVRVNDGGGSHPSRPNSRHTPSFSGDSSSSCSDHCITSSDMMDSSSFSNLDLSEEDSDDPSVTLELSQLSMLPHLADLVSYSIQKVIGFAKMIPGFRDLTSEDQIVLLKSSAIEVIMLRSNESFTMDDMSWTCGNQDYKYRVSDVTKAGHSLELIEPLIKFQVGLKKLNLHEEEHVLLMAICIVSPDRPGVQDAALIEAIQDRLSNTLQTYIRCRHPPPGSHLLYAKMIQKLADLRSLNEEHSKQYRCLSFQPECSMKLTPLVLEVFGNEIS
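Inhibition of the VDR/SRC2-3 peptide interaction is quantified by fluorescence polarization. Compounds (23 nl, pintool) incubate with the reagents for 2 hours at ambient room temperature.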
Numbers without * were called inactive; ? = inconclusive; & = joins results of further samples. % is scaled to controls: 0 for no effect and ±100 for the full control effect; potency is read from the fitted curve at half-maximal effect. Not all compounds are listed (hit frequency here may not be typical).

VDR inh | molecule
18.7% | CC[C@@]1(C(=O)OC)N[C@H](CN(C)C(=O)Nc2ccc(OC)cc2)[C@@H]2C(=O)N(C)C(=O)[C@@H]21
-26.8% | Cc1ccc(S(=O)(=O)CNC(=S)c2ccc3ccccc3c2)cc1
8.9% | Cc1cccc(NC(=S)N(CCN(C)C)Cc2cc3cc(C)cc(C)c3[nH]c2=O)c1
-18.7% | CN(CC1CCCN(CCc2ccc(Cl)cc2)C1)C(=O)c1ccco1 (centres undefined)
-5.0% | O=C(COC(=O)/C=C/c1ccccc1)NCCc1ccc(F)cc1
2.7% | Fc1ccccc1-n1ncc2c1ncn1nc(-c3ccccc3Cl)nc21
6.2% | N=c1sc2ccccc2n1-c1ccccc1
-9.3% | COC(=O)c1ccc(Cn2cc(C(F)(F)F)ccc2=O)cc1
-8.8% | CC1Cc2ccccc2N1S(=O)(=O)c1cccc(C(=O)N2CCCCC2)c1 (centres undefined)
9.5% | COCCCNC(=O)CSc1nc2c(sc3ccccc32)c(=O)n1CCCC(=O)NCCOC
18.5% | COc1cc2c(=O)n(-c3ccc(C)cc3)c(=O)n(CC(=O)c3ccc4c(c3)OCO4)c2cc1OC
4.1% | COCCn1c(SCC(=O)Nc2nnc(C)s2)nnc1-c1c[nH]c2ccccc12
-6.5% | COc1ccc(C)cc1NC(=O)C1CC(=O)N(Cc2ccco2)C1 (centres undefined)
12.4% | CC1CCc2nn(CC(=O)Nc3cccc(C(F)(F)F)c3)c(=O)cc2C1 (centres undefined)
9.4% | Cc1cccc(CCNC(=O)C2CCC(CNS(=O)(=O)c3ccccc3)CC2)c1 (centres undefined)
-9.2% | Nc1nonc1C(=O)NCCNCc1c(OCc2ccccc2F)ccc2ccccc12
7.2% | CCS(=O)(=O)CCSc1nc2ccccc2o1
-10.8% | O=C(Oc1ccc2ccccc2c1)c1ccco1
7.1% | CCOc1ccc(C(=O)Nc2cc(C)on2)cc1
-9.1% | Cc1cc(C(=O)COc2cccnc2[N+](=O)[O-])c(C)n1Cc1cccs1
-16.4% | O=C(Nc1nc(-c2ccncc2)cs1)c1ccco1
14.0% | Cc1cccc(NC(=O)CNC(=O)COC(=O)c2ccc(C(C)(C)C)cc2)c1C
-18.3% | COc1ccc(-n2c(=O)c3ccccc3n(CC(=O)Nc3cccc(OC)c3)c2=O)cc1
5.6% | Cc1ccc(NC(=O)c2c(C)oc3ncn(CC(C)C)c(=O)c23)nc1
9.2% | COc1ccccc1NS(=O)(=O)N(C)C
-26.5% | CCc1cccc(NC(=O)C2CCCN(S(=O)(=O)c3ccc4[nH]c(=O)ccc4c3)C2)c1 (centres undefined)
-7.7%&-0.1% | CSc1ccccc1N1CCN(CCCCCC(=O)NC2CCCc3ccccc32)CC1 (centres undefined)
10.5% | Cc1ccccc1CNC(=O)c1ccc(NC(=O)c2nsc3ccccc23)cc1
13.7% | O=C(Nc1nc2ccc(S(=O)(=O)N3CCCCC3)cc2s1)c1ccncc1
-9.7% | Cc1cccc(N2CCN(CC(=O)NCc3ccccc3)CC2)c1C
2.6% | O=C(CSc1ccc2c(c1)OCCO2)NCc1ccco1
11.2% | COc1ccc(C(=O)N2CCCCC2CCN2CCOCC2)cc1 (centres undefined)
-0.5% | CCOC(=O)C(C)Sc1nc(N)c(NC(=O)c2ccc(OC)c(OC)c2)c(=O)[nH]1 (centres undefined)
-0.5% | C=CCC[C@H](Cc1ccc(F)cc1)C(=O)OC[C@H](Cc1c[nH]c2ccccc12)NC(=O)[C@@H](CC=C)CC(=O)N[C@H](CO)Cc1ccccc1
-2.0% | Cc1cccc(NC(=S)NCc2ccc3c(c2)OCO3)c1C
-9.9% | CN(CCCN1CCCCC1)C(=O)CCc1nnc(C2CCCCC2)o1
8.2% | COc1ccc(CCN(Cc2cc3ccc(C)cc3[nH]c2=O)C(C)=O)cc1OC
-0.2% | COc1ccc(C)cc1NC(=O)N1CCCn2nc(C)cc21
-16.3% | Cc1ccccc1Cn1c(CN2CCN(c3cc(Cl)ccc3C)CC2)nc2c1c(=O)[nH]c(=O)n2C
5.4% | O=C(CN(Cc1ccccc1F)C(=O)c1csnn1)NCc1ccc2c(c1)OCO2
-18.5% | COc1ccc(C(=O)Nn2c(C)nc3ccccc3c2=O)cc1Br
-25.2% | CCn1cc(C(=O)O)c(=O)c2cc(F)c(N3CCN(C(=S)NC(=O)c4cc(OC)cc(OC)c4)CC3)cc21
-26.1% | CCOc1ccc(-n2c(Cc3cc(=O)[nH]c(=O)[nH]3)nnc2SC(C)C)cc1
1.6% | O=S(=O)(Nc1nnc(-c2ccccc2)s1)c1ccc(Cl)cc1
7.6% | CSc1nc(-c2ccccc2)nn1C(=O)c1ccc(C)cc1
3.3% | CCOC(=O)CCC(=O)NCc1ccc2[nH]c(C)cc2c1
9.0% | CC(NC(=O)COC(=O)C1CC2CCCC(C1)C2=O)c1ccccc1 (centres undefined)
-13.8% | O=C1C2CCCN2C(c2cccs2)N1c1ccc(F)cc1 (centres undefined)
-5.9% | CC(C)[C@H](N)C(=O)N1CCC(C(=O)N[C@@H](Cc2ccccc2)C(=O)NCc2ccc(F)cc2)CC1
8.8% | CCCCOc1ccc(C2C(=O)N(C3CCCCC3)CC(=O)N2CC2CCCO2)cc1 (centres undefined)

Further records follow.
VDR inh | molecule
4.8% | COc1cc(C(=O)Nc2cnc(NC(=O)C(C)C)cc2C)cc(OC)c1OC
8.3% | COc1ccc(CCC(=O)Nc2nc3ccccc3[nH]2)cc1
-0.9% | CC(CN(C)Cc1ccccc1)OC(=O)C1COc2ccccc2O1 (centres undefined)
0.8% | Cc1cccc(C(=O)Nc2ccc(NC(=O)CN3CCOCC3)cc2)c1
0.5% | Cc1c(Cc2ccccc2)c(=O)oc2c(C)c(OCc3nn[nH]n3)ccc12
2.1% | CC(Nc1nc(-c2ccc(F)cc2)cs1)c1nc2cc(C(F)(F)F)ccc2n1CCCO (centres undefined)
-6.4% | Cc1nnc(SCC(=O)NCc2ccc3c(c2)OCO3)s1
-3.2% | Cn1c2ccccc2c2nnc(SCC(=O)Nc3ccccc3F)nc21
7.1% | Cc1cc(-c2nc3ncccc3o2)ccc1NC(=O)c1ccccc1Br
-3.6% | COc1cc(/C=C2/C(=O)N(C)C(=S)N2C)ccc1OCc1cccc(F)c1

Some values from the results shown.
Entry of CC(C)[C@H](N)C(=O)N1CCC(C(=O)N[C@@H](Cc2ccccc2)C(=O)NCc2ccc(F)cc2)CC1 in VDR inh: -5.9%
Entry of CCS(=O)(=O)CCSc1nc2ccccc2o1 in VDR inh: 7.2%

Next part:
VDR inh | molecule
-8.4% | CC(C)c1ccc(NC(=O)CCNS(=O)(=O)c2cccc3nonc23)cc1
? | O=C1/C(=C\c2cccnc2)Sc2ccccc21
-9.6% | Cc1ccc(OCC(=O)NC(=S)Nc2ccc(Br)cn2)cc1
15.9% | COc1ccc(C(C)NC(=O)Cc2ccc(Br)cc2)cc1 (centres undefined)
-0.5% | Cc1cc(Cl)c2oc(C(=O)N(C)C(C)c3ccccn3)c(C)c2c1 (centres undefined)
5.3% | CC(=O)Nc1ccc(NC(=S)Nc2ccccc2)cc1
10.9% | CCOC(=O)C1CCN(S(=O)(=O)c2ccc(Cl)cc2)CC1
-4.6% | Cc1ccc(S(=O)(=O)c2nnn3c2nc(N2CCOCC2)c2ccccc23)cc1C
-11.0% | COc1ccc(C(=O)NNC(=O)c2ccc(F)c(S(=O)(=O)N3CCOCC3)c2)cc1
-8.5% | O=C(COc1ccccc1)Nc1nnc(-c2ccccc2)o1

In another format: results already given.
Molecule | VDR inh
CC(=O)Nc1ccc(NC(=S)Nc2ccccc2)cc1 | 5.3%
CCOC(=O)C1CCN(S(=O)(=O)c2ccc(Cl)cc2)CC1 | 10.9%
Cc1ccc(S(=O)(=O)c2nnn3c2nc(N2CCOCC2)c2ccccc23)cc1C | -4.6%
COc1ccc(C(=O)NNC(=O)c2ccc(F)c(S(=O)(=O)N3CCOCC3)c2)cc1 | -11.0%

Next section.
VDR inh | molecule
21.2% | Cc1ccc(N(Cc2cc3ccccc3[nH]c2=O)S(C)(=O)=O)cc1
-9.3% | Cn1c2[n+](c3ccc(Cl)cc3c1=O)Cc1ccccc1-2
? | O=C(/C=C/c1ccc([N+](=O)[O-])cc1)NCCc1ccccc1
-8.2% | COC(=O)C1CCN(C(=O)COC(=O)CC(NC(C)=O)c2ccccc2)CC1 (centres undefined)
11.7% | CC(C)CN(C(=O)CN1CCN(c2cccc(Cl)c2)CC1)c1c(N)n(CC(C)C)c(=O)[nH]c1=O
12.4% | COc1cc(CN(C(=O)COc2ccc(C)c(C)c2)c2ccccn2)cc(OC)c1OC
-3.6% | Cc1c(NC(=S)NC(NC(=O)CC(C)C)C(Cl)(Cl)Cl)c(=O)n(-c2ccccc2)n1C (centres undefined)
8.4% | Cc1ccc(C2C(=O)N(C3CCC(C)CC3)CC(=O)N2C2CC2)cc1 (centres undefined)
-6.0% | CN(CC(=O)O)S(=O)(=O)c1ccc(F)cc1
-7.0% | O=C(c1cccs1)n1nc(-c2cccnc2)nc1NCc1ccco1
-7.5% | CCN(CC)S(=O)(=O)c1cccc(-c2nnc(SC(C)C#N)n2Cc2ccccc2)c1 (centres undefined)
10.2% | CC1(C)Oc2ccc(C(=O)N3CCc4ccccc43)cc2N(CC(=O)N2CCCC2)C1=O
-13.3% | Cc1noc2ncnc(N3CCCCC3)c12
? | Cc1nc2ccc(NC3=NCCCCC3)cc2s1
-11.8% | Cc1cc(C)cc(NC(=O)CCc2c(C)nc3c4cccnc4nn3c2C)c1
? | CC1(C)[C@@H](OC(=O)CCC(=O)O)CC[C@@]2(C)[C@H]1CC[C@@]1(C)[C@H]2C(=O)C=C2[C@H]3C[C@](C)(C(=O)O)CC[C@]3(C)CC[C@@]21C
-3.5% | O=C(CCn1c(=O)oc2ccccc21)Nc1ccc2c(c1)OCCO2
1.1% | O=C(CCS(=O)(=O)c1cc2c(cc1Cl)NC(=O)CO2)NCc1ccccc1Cl
-4.2% | N#C/C(=C/c1ccc(-c2ccc(S(N)(=O)=O)cc2)o1)c1nc2ccccc2s1
-8.0% | COCCCN(Cc1ccco1)C(=O)CSc1nc2ncccc2[nH]1

Arranged by value in VDR inh (falling): 5 from the list above.
VDR inh | molecule
-3.5% | O=C(CCn1c(=O)oc2ccccc21)Nc1ccc2c(c1)OCCO2
-4.2% | N#C/C(=C/c1ccc(-c2ccc(S(N)(=O)=O)cc2)o1)c1nc2ccccc2s1
-7.5% | CCN(CC)S(=O)(=O)c1cccc(-c2nnc(SC(C)C#N)n2Cc2ccccc2)c1 (centres undefined)
-8.0% | COCCCN(Cc1ccco1)C(=O)CSc1nc2ncccc2[nH]1
-11.8% | Cc1cc(C)cc(NC(=O)CCc2c(C)nc3c4cccnc4nn3c2C)c1

Other records follow.
VDR inh | molecule
-25.7% | COCc1nc(-c2ccc(-c3ccc(OC)cc3)nc2OC)no1
-0.2% | Nc1ncc(S(=O)(=O)c2ccc([N+](=O)[O-])cc2)s1
8.3%&8.1% | CN1C(=O)Cc2cc(S(=O)(=O)NCCc3ccc(Cl)cc3)ccc21
1.0% | COCCOC(=O)c1nccnc1C(=O)Nc1ccc(S(=O)(=O)N2CCOCC2)cc1
6.3% | Cc1ccc(-n2c(C)cc(/C=N/NC(=O)c3ccc(CN4CCOCC4)cc3)c2C)cc1
-6.1%&-16.2% | COc1ccc(-c2cn(-c3ccccc3)c3[n+]2CCS3)cc1
9.4% | Cc1ccccc1CNC(=O)C1CCC(=O)N(CC2CCCCC2)C1 (centres undefined)
-6.5% | O=C(CN1C(=O)c2ccccc2C1=O)N1CCN(c2ccccc2)CC1
6.6% | C(=N\n1cnnc1)/c1ccc(N2CCOCC2)s1
-2.3% | CC1Cc2ccccc2N1C1=CC(=O)CCC1 (centres undefined)
-13.5% | CCC(C)c1ccccc1NC(=O)Cc1coc2cc3c(cc12)CCC3 (centres undefined)
-14.5% | CCOC(=O)CSc1ccccn1
-22.1%&-6.4% | Oc1ccccc1O
9.4% | CN(C)c1cc[n+](CC(=O)Nc2c(Cl)cc(Cl)cc2Cl)cc1
3.2% | Cn1cccc1C(=O)OCC(=O)NC(=O)c1ccc(Cl)cc1
6.9% | CC1(C)SC2c3ccccc3C(=O)N2[C@@H]1C(=O)NCCCN1CCOCC1 (some centres undefined)
12.8% | CCOC(=O)c1c(Oc2ccc(C(=O)OC)cc2)nnc(-c2ccccc2)c1-c1ccccc1
-18.4% | Cc1c(OCC(=O)NC2CC(C)(C)NC(C)(C)C2)ccc2c3c(c(=O)oc12)CCC3
-19.7% | O=S(=O)(NC(=NCCc1ccc(Cl)cc1)c1ccccc1Cl)c1cccs1
-13.9% | Cc1ccc(S(=O)(=O)c2cn(CC(=O)Nc3ccc(C)c(Cl)c3)c3ccc(C)cc3c2=O)cc1
-2.1% | Cc1ccc(NC(=S)NCCc2c[nH]c3ccccc23)cc1
11.5% | COc1ccc(C)cc1NC(=O)c1ccc2c(c1)CCN2S(=O)(=O)c1ccc(Cl)cc1
0.2% | CC1=NC(Nc2nc(C)c3ccccc3n2)=NC(C)(C)C1
-7.9% | COc1ccc(CCNC(=O)Cn2cnc3ccccc3c2=O)cc1OC
3.4% | O=C(CS(=O)c1ccc(Br)cc1)N1CCOCC1 (centres undefined)
11.5% | CC(C)C(NC(=O)c1ccccc1)c1nnc(SCC(=O)NC2CCCC2)n1C (centres undefined)
-4.5% | Nc1nc(=O)n(C2OC(CO)C(O)C2O)cc1Cl (centres undefined)
-9.7% | O=C(CSc1ccc(Br)cc1)Nc1ccccc1Oc1ccccc1
-10.4% | Cc1ccc(NC(=O)COC(=O)C(NS(=O)(=O)c2ccc(Cl)cc2)C(C)O)c(Br)c1 (centres undefined)
-1.3% | CCC(C)CCN1CCN=C1N(C)C (centres undefined)
22.4% | O=C1CSC(=Nc2ccc(F)cc2)N1
4.5% | COc1cccc(-c2ccc(-c3noc(-c4ccccc4Br)n3)c(OC)n2)c1
